VDR inh = vitamin D3 receptor (human) inhibition | P11473 | VDR-SRC2-3 peptide fluorescence polarization, 2 h | Potency, µM, for inactives: max response, negative = inhibition, usual class: inhibitors | 400,000 tested, 0.93% active; active = well fitted inhibition curve with a large enough effect; inconclusive = small, poorly fitted or top-dose-only effect, or another doubt; inactive = no such curve, though single readings can be large or run the other way; note: series mostly up to about 120 µM
Target sequence (P11473 whole entry, looked up): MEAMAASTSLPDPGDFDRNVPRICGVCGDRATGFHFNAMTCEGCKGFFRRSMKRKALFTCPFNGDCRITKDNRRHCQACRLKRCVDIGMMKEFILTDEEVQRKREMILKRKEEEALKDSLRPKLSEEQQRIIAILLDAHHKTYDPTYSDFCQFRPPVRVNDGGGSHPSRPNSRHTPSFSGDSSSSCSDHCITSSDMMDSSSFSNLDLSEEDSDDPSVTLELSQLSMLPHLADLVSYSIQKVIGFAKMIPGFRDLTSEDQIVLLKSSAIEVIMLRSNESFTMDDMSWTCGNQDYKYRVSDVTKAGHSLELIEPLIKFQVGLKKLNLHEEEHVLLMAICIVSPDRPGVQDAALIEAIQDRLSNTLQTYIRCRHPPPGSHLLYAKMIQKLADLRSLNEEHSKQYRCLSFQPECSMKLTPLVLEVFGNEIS
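Measured by FP: displacement of SRC2-3 coactivator peptide from VDR by library compounds, following a two-hour ambient incubation.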
* marks the source's active call; other numbers are inactive results; ? = inconclusive; & = joins results of further samples. % is set by controls: 0 for no effect and ±100 for the full control effect; potency is the fitted concentration of half-maximal effect.

SMILES | VDR inh
Cc1cccc(-n2nnnc2SCC(=O)NCCN2C(=O)CSC2=O)c1 | -8%
CCc1c(N)nc(N)nc1Nc1ccccc1Cl | -5%
CC1(C)Oc2ccc3ccc(=O)oc3c2/C(=N/O)C1=O | -1%
Cc1cccc(Nc2nnc(SCC(=O)Nc3ccc(C(=O)O)cc3)s2)c1 | -8%
Cc1ccc(CONC(=O)c2cccc([N+](=O)[O-])c2)cc1 | 2%
O=C(CN1C(=O)CCS(=O)(=O)c2ccccc21)Nc1ccc2c(c1)OCCO2 | 3%
CCC(C)N(C(=O)c1csnn1)C(C(=O)NCc1ccc(F)cc1)c1ccccc1F (centres undefined) | -13%
COc1ccc(CNC(=O)c2ccc(NC(=O)N3CCSc4ccccc43)cc2)cc1 | 6%
O=C(CCc1ccccc1)Nc1ccnn1C1CCN(C/C=C/c2ccccc2)CC1 | 9%
COc1ccc(-n2c(=O)c3c4c(sc3n(CC(=O)N3CCCCC3C)c2=O)CCC4)c(OC)c1 (centres undefined) | -14%
O=C(Nc1ccccc1Cl)Nc1cccnc1Cl | 11%
C=Cn1cc[n+](CC(=O)c2ccc(OC)c(OC)c2)c1 | -5%
CCOC(=O)Nc1nnc(CCc2ccccc2)s1 | 0%
Cc1ccc(N2CC(NC(=O)C(=O)c3c(C)[nH]c4ccccc34)CC2=O)cc1C (centres undefined) | -1%
COc1cccc(CNC(=O)C2CCC(=O)N(CC3CCCCC3)C2)c1OC (centres undefined) | -7%

4 entries from above, as labelled records:
> Cc1cccc(Nc2nnc(SCC(=O)Nc3ccc(C(=O)O)cc3)s2)c1
  VDR inh: -8%
> Cc1ccc(CONC(=O)c2cccc([N+](=O)[O-])c2)cc1
  VDR inh: 2%
> O=C(CN1C(=O)CCS(=O)(=O)c2ccccc21)Nc1ccc2c(c1)OCCO2
  VDR inh: 3%
> CCC(C)N(C(=O)c1csnn1)C(C(=O)NCc1ccc(F)cc1)c1ccccc1F (centres undefined)
  VDR inh: -13%

(list continues)
SMILES | VDR inh
O=C1C[C@@H](c2ccc(O[C@@H]3O[C@H](CO)[C@@H](O)[C@H](O)[C@H]3O)cc2)Oc2cc(O)ccc21 | -19%
COc1ccc(NS(=O)(=O)c2ccc(-c3n[nH]c(=S)n3Cc3ccccc3)cc2)cc1 | -13%
Cc1ccc(-c2[nH]ncc2CNCc2ccc(CN(C)C)cc2)cc1 | -15%
COc1ccc(C)cc1NC(=O)c1nnn(CCc2ccccc2)c1N | -12%
CC(=O)N(C)c1ccc(NC(=S)NC(=O)/C=C/c2ccco2)cc1 | -13%
O=C(CSc1nnc(C2COc3ccccc3O2)o1)NC1CCCCC1 (centres undefined) | 13%
COc1ccc(OCC(=O)OCc2cc(=O)n3nc(C4CCCCC4)sc3n2)cc1 | -3%
CC(C)Cn1nnnc1S(=O)(=O)CCc1ccccc1 | 6%
CC1CN(C2CCCCC2)C(=O)NC1=O (centres undefined) | -9%
CC(C)CNC(=S)N1CCC(NC(=O)c2ccco2)CC1 | -9%
O=C(NCc1ccc(Cl)cc1)c1ccc(Cn2cc(C(F)(F)F)ccc2=O)cc1 | -11%
Fc1ccc(-n2ncc3c(SCc4cccnc4)ncnc32)cc1 | -3%
Cc1ccc(C)c(NC(=O)CSc2ncc3c(n2)-c2ccccc2N(Cc2ccccc2C)S3(=O)=O)c1 | 1%
Cc1cccc(-c2noc(CNC(=O)c3ccco3)n2)c1 | 6%&14%
COc1ccc(NC(=S)Nc2cccc(C(C)=O)c2)cc1OC | -15%

Quoted from the entries so far (5 entries):
SMILES | VDR inh
O=C(NCc1ccc(Cl)cc1)c1ccc(Cn2cc(C(F)(F)F)ccc2=O)cc1 | -11%
Fc1ccc(-n2ncc3c(SCc4cccnc4)ncnc32)cc1 | -3%
Cc1ccc(C)c(NC(=O)CSc2ncc3c(n2)-c2ccccc2N(Cc2ccccc2C)S3(=O)=O)c1 | 1%
Cc1cccc(-c2noc(CNC(=O)c3ccco3)n2)c1 | 6%&14%
COc1ccc(NC(=S)Nc2cccc(C(C)=O)c2)cc1OC | -15%

Among those listed so far, three have an NH in an aromatic ring.
SMILES | VDR inh
Cc1ccc(N2CC(NC(=O)C(=O)c3c(C)[nH]c4ccccc34)CC2=O)cc1C (centres undefined) | -1%
COc1ccc(NS(=O)(=O)c2ccc(-c3n[nH]c(=S)n3Cc3ccccc3)cc2)cc1 | -13%
Cc1ccc(-c2[nH]ncc2CNCc2ccc(CN(C)C)cc2)cc1 | -15%

(more compounds)
SMILES | VDR inh
CC(C)(C)C(=O)NC(=S)Nc1ccccc1C(=O)NC1CCCCC1 | 0%
O=C(CSc1n[nH]c(-c2ccccc2Br)n1)NCCN1C(=O)CSC1=O | -10%
Cc1ccc(CN2CCSc3ccc(C(=O)NCc4ccco4)cc32)cc1 | -4%
COC(=O)C1=C(CS(=O)(=O)c2cc(OC)ccc2OC)NC(=O)NC1c1ccc(O)c(OC)c1 (centres undefined) | -24%
COc1cc(SC)ccc1C(=O)N1CCN(c2ccccc2OC)CC1 | -11%
CCOC(=O)C1(Cc2ccccc2C)CCCN(C(=O)CSC)C1 (centres undefined) | -15%
O=C(CCN1CCN(c2ccccc2)CC1)c1ccc(Cl)cc1 | 79µM*
Cc1ccc(C2C(C(=O)c3sc(-c4ccccc4)nc3C)=C(O)C(=O)N2CCN(C)C)o1 (centres undefined) | -7%
O=C(CSc1nc2ccccc2s1)NCCOc1ccccc1 | -25%
Cc1cccc(C(c2sc3nc(-c4ccco4)nn3c2O)N2CCN(Cc3ccccc3)CC2)c1 (centres undefined) | 8%
CN(C)c1ccc(CNC(=O)Cn2c(=O)oc3cc(S(=O)(=O)N4CCCCCC4)ccc32)cc1 | 5%
Cc1ccc(S(=O)(=O)N(C)Cc2cc3ccccc3[nH]c2=O)cc1 | -1%
COc1ccc(CCNS(=O)(=O)CCNC(=O)c2ccc(OC)cc2)cc1 | 7%
OC(CN1CCN(c2ccccc2Cl)CC1)c1ccccc1 (centres undefined) | -2%
CS(=O)(=O)N1N=C(c2ccco2)CC1c1ccccc1Cl (centres undefined) | 8%
CCCN1CNc2c(c(=O)[nH]c(=S)n2CCc2ccc(OC)cc2)C1 | 0%
CCCn1c(N)c(C(=O)CSc2nc(C3CC3)n(-c3ccccc3)n2)c(=O)[nH]c1=O | 0%
CCN(c1ccccc1C(=O)O)S(=O)(=O)c1ccc2[nH]c(=O)[nH]c2c1 | 10%
C#CCOCCOCCOCCNc1nc(N2CCN(C(=O)[C@H](CCC(=O)O)n3cc([C@@H](N)CC(N)=O)nn3)CC2)nc(N2CCN(C(=O)[C@H](CCC(=O)O)n3cc([C@@H](N)CC(N)=O)nn3)CC2)n1 | -12%
COc1ccc(NC(=O)CSc2nc(C)cs2)cc1OC | -6%
CCc1nn(CCCC(=O)N2CCN(c3cc(Cl)ccc3C)CC2)c(=O)c2cc3occc3n12 | -7%
O=C(NCc1nnc(SCC(=O)N2CCCc3ccccc32)n1-c1ccccc1)c1cccc2ccccc12 | -19%
COc1cc(Cl)c(CC(=O)c2c[nH]c3ccccc23)cc1OC | -11%
COCCn1c(SCC(=O)NCC2CCCO2)nc2c([nH]c3ccccc32)c1=O (centres undefined) | 9%
O=C(CSc1nc2ccccc2o1)Nc1nc2ccccc2s1 | -7%
CC1CCN(C(=O)CSc2nncn2-c2ccccn2)CC1 | ?
CC(C)(C)OC(=O)C[C@@H]1C/C=C\C[C@H](CC(=O)NCCO)C(=O)N[C@H](Cc2ccccc2)COC1=O | 7%
CCc1c(C)nc2c(C)cccc2c1SCCC#N | ?
O=C(N/N=C/c1ccc2c(c1)OCO2)c1ccc(Cl)cc1Cl | -6%
COc1ccc2c(c1)c(=O)oc1c(C)c(OCC(=O)N3CCc4ccccc4C3)ccc12 | 10%
COC(=O)c1[nH]c(C)c(/C(O)=C2\C(=O)C(=O)N(CCN3CCOCC3)C2c2ccccc2OC)c1C (centres undefined) | 1%
C/C(CC(=O)Nc1ccc2c(c1)OCCO2)=N\NC(=O)COc1ccc(C)cc1Br | 23%
Cc1ccc(CC(=O)Nc2ccc(S(=O)(=O)Nc3ncccn3)cc2)cc1 | 10%
Cc1cccc(Nc2nnc(-n3nc(C)cc3C)c3ccccc23)c1 | 19%
Cc1cc(C)cc(Nc2c(F)c(F)c(F)c(F)c2C(=O)O)c1 | -3%
COc1ccc(Br)cc1S(=O)(=O)Nc1cccc(C)n1 | -5%
Cc1ccc(S(=O)(=O)c2cnc(SCC(=O)Nc3ccc4c(c3)OCCO4)[nH]c2=O)cc1Cl | 1%
O=C(COC(=O)CC1CC2CCC1C2)Nc1ccc(F)cc1Cl (centres undefined) | -18%
COc1ccc(Cl)cc1C(=O)Nc1ccc(OCC(=O)N2CCOCC2)cc1 | -12%
CN(Cc1c(C(=O)N/N=C/c2ccc(F)cc2)nnn1-c1nonc1N)C1CCCCC1 | 10%
CCOc1cc(S(=O)(=O)n2c(C)nc3ccccc32)ccc1F | 4%
C#CCN1C=CC(=O)[C@@H](OC(=O)NCCC)[C@H]1c1ccccc1Br | 16%
COC(=O)c1cc(NC(=O)CN2CCC(C(N)=O)(N3CCCCC3)CC2)cc(C(=O)OC)c1 | 0%
CCCn1nc(NC(=O)CC)c2cc3cccc(C)c3nc21 | -15%
CC1CN(Cc2cc(=O)oc3cc(O)c(Cl)cc23)CC(C)O1 (centres undefined) | -25%
COC(=O)C1=C(C)Nc2nc3ccccc3n2C1c1ccccc1F (centres undefined) | -7%
CSc1ccc(CN(C)C(=O)c2ccc(S(=O)(=O)Nc3ccccc3)cc2)cc1 | -6%
CCCOc1ccc(/C=N/Nc2ccccc2[N+](=O)[O-])c(O)c1 | -7%
CC1(C)Cc2c(sc3c2c(=N)n(Cc2ccco2)c(=O)n3Cc2ccc(F)cc2)CO1 | 16%
O=C(Nc1nnc(C2CC(=O)N(c3ccc(Cl)cc3)C2)s1)c1ccco1 (centres undefined) | 3%
COc1ccc(CNCCC(c2ccc(OC)cc2)c2ccccc2OC)cc1 (centres undefined) | -5%
Cc1ccc(C)c(S(=O)(=O)c2c(C)cc(C)nc2Cl)c1 | 0%
C[C@H](NC(=O)[C@@H]1CCC(=O)N1Cc1ccco1)c1ccccc1 | -3%
CCOC(=O)c1sc2nc(C)nc(NCCc3ccccn3)c2c1C | -2%
COc1ccc(CCNC(=O)C2CCN(C(=O)c3ccc(Cl)cc3)CC2)cc1OC | 16%
CCN1CCN(c2nc3c(c(=O)[nH]c(=O)n3C)n2CCSc2nc3ccccc3s2)CC1 | -4%
C=CC[C@@H](CC(=O)N(CCO)Cc1ccccc1)C(=O)NCCOC(=O)[C@H](CC=C)CC(=O)OC(C)(C)C | 17%
CC(C)NCC(O)COc1ccc2c(c1)CCC2 (centres undefined) | -2%
NC(Cc1c[nH]c2ccccc12)C(=O)Nc1ccccc1 (centres undefined) | -11%
CCOc1ccc(S(=O)(=O)N(CC(=O)N/N=C/c2ccc(-c3ccc([N+](=O)[O-])cc3)o2)c2ccccc2)cc1 | -9%
(continued)
SMILES | VDR inh
N#Cc1c(NC(=O)CSc2nc(N)cc(=O)[nH]2)sc2c1CCCCCC2 | 5%
O=C(/C=C/c1ccc(F)cc1)N1CCN(c2ccccn2)CC1 | -5%
CNC(=O)CSc1nnc(C(C)C)n1C | -15%
CCNC(=O)N1C(CC(=O)OCC)C(=O)NC2CCCCC21 (centres undefined) | 6%
CCn1c(=O)cc(SCC(=O)Nc2cc(Cl)ccc2OC)c2ccccc21 | -7%
CC(=O)Nc1ccc(S(=O)(=O)N(C)CC(=O)NNC(=O)c2cccs2)cc1 | 1%
O=C(Nc1ccc(F)cc1F)c1ccc(-n2cnnc2)cc1 | 14%
CCOC(=O)C1C(=O)OC2(CCOC(C)(C)C2)C1C(=O)OCC (centres undefined) | -12%
COc1ccc(-n2nc3c(c2NC(=O)C24CC5CC(CC(C5)C2)C4)CS(=O)C3)cc1 (centres undefined) | -9%
COc1ccccc1CN1C(=NC(=O)CCC2CCCC2)SC2CS(=O)(=O)CC21 (centres undefined) | 11%
COc1ccc(CNCC(O)(c2ccc(Cl)cc2)c2ccc(Cl)cc2)cc1 | 0%
Cc1ccc(N2CC(C(=O)N3CCC4(CC3)CC(=O)c3ccccc3O4)CC2=O)cc1C (centres undefined) | 13%
CC(C)OC(=O)c1c(N)n(CCCN2CCOCC2)c2nc3ccccc3nc12 | 7%
Cc1ccc(NC(=O)CN(C)S(=O)(=O)c2cccc3cccnc23)cc1 | -2%
CCC(C)C(N)C1=NC(C(=O)N[C@@H](CC(C)C)C(=O)N[C@H](CCC(=O)[O-])C(=O)N[C@H](C(=O)N[C@H]2CCCCNC(=O)[C@H](CC(N)=O)NC(=O)[C@@H](CC(=O)[O-])NC(=O)[C@H](Cc3cnc[nH]3)NC(=O)[C@@H](Cc3ccccc3)NC(=O)[C@H]([C@@H](C)CC)NC(=O)[C@@H](CCCN)NC2=O)[C@@H](C)CC)CS1.[Zn+2] (some centres undefined) | ?
Cc1ccccc1CN1CCN(CCCc2ccccc2)C(CCO)C1 (centres undefined) | 1%
C[C@]12C(=O)N(c3cccc(F)c3)C(=O)N1[C@@H]1c3ccccc3OC[C@@H]1[C@H]2c1ccccc1 | 3%
O=C(CCN1CCN(CCO)CC1)Nc1cccc(Br)c1 | 12%
CC(C)(C)C(=O)CN1C(=O)NC(C)(Cc2ccc3c(c2)OCO3)C1=O (centres undefined) | -13%
O=S(=O)(c1ccc(Cl)cc1)N1CCCc2ccccc21 | -10%
CCCC(C)c1nc(C(N)=O)c2[nH]c(=O)n(-c3ccc(OC)cc3OC)c2n1 (centres undefined) | -23%
Cc1ccc(NC(=O)CN2C(=O)COc3ccc(S(=O)(=O)N4CCCCC4)cc32)cc1Cl | 2%
COc1ccc2oc(-c3cccc(NC(=O)c4ccc(C#N)cc4F)c3)nc2c1 | -8%
CCOc1ccccc1CN1CCNC(=O)C1CC(=O)NCCN1CCOC1=O (centres undefined) | -10%

An excerpt. The share of hits here may be higher or lower than overall.
